# Assay outcomes from PubChem BioAssay.
# TRPV1 PAM – enhances activation of the human vanilloid receptor TRPV1. Q8NER1. TRPV1-expressing cells, Fluo-8 calcium influx, capsaicin EC20 potentiation; host cell line not named in the record; control for the full effect not named in the record. potentiation, % at 8.33 µM. 320,000 tested, 0.02% active; active means potentiation above 80%; inconclusive means 30% to 80%; inactive means below 30%; also: 0% is about no effect
#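 TRPV1-expressing cells were cultured overnight at 35.5C and loaded with Fluo-8 calcium dye for 40 to 90 min at room temperature. After a 10 s baseline, compound was added and calcium influx was read kinetically for 3 min (ex 480/em 520 nm).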
# Sfp PPTase inh – blocks B. subtilis Sfp PPTase activity; Q9F4F7; Biochemical Sfp PPTase activity, qHTS; Potency, µM, for the others: max response, negative = inhibition, actives largely listed as inhibitors; 310,000 tested, 3.5% active; AID 1490; active = well fitted inhibition curve with a large enough effect; inconclusive = small, poorly fitted or top-dose-only effect, or another doubt; inactive = no such curve, though single readings can be large or run the other way;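 also: the enzyme is Sfp with the accession as filed and its product quenches rhodamine fluorescence; potency is read from the fitted curve at half-maximal effect; 0% = enzyme reaction without inhibitor and -100% = no enzyme wells; top concentration of the series not given in the record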
#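 Sfp 15 nM + cpd, 15 min RT; start w/ rhodamine-CoA 5 uM, BHQ-2-YbbR 12.5 uM (final); 50 mM Hepes pH 7.6, 10 mM MgCl2, 0.01% NP-40, 0.01% BSA; read 525/598 nm at 0 and 30 min.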
# TRPML1 blocker – inhibitors of human TRPML1 channel; TRPML1-inducible cells, Ca2+ dye fluorescence, FDSS; stronger effect = lower value; inhibition of EC80 agonist-evoked calcium signal; AID 624415; Q9GZU1; activity change, negative = inhibition, % (no concentration beside the values); 390,000 tested, 0.02% active; in the data active means activity change below about -50%; inconclusive means about -30% to -50%; inactive means above about -30%;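 also: stimulus is agonist 54-4 at its EC80 concentration; % is scaled to controls: 0 for no effect and ±100 for the full control effect; compound concentration not given in the record; the text of the record puts the active cut at -80%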
# Target sequence (Q9GZU1 whole entry, looked up): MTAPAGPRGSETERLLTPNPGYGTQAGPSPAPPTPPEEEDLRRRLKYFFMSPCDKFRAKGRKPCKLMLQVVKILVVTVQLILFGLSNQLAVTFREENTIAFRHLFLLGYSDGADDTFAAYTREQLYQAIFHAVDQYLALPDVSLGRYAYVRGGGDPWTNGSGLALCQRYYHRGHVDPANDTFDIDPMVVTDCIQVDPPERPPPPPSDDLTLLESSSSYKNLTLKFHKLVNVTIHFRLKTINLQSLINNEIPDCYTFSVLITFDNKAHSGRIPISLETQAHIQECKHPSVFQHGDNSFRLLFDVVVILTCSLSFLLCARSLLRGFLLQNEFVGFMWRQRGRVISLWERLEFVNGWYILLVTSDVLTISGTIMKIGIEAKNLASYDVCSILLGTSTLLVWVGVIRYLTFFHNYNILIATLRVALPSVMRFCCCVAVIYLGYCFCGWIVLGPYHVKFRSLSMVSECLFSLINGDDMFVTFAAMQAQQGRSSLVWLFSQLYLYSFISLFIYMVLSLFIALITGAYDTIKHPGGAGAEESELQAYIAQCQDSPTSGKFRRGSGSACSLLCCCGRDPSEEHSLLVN
#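 Tet-induced TRPML1-DL cells loaded with Ca8 no-wash calcium dye were read kinetically on FDSS. Compound addition was followed by EC80 agonist 54-4 (4 uM final); inhibition was read over 110 s.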
# PINK1 modulator – changes PINK1 expression; PINK1 immunofluorescence, high-content cytometry, 24 h; Potency, µM (titrated, usually from 76.6 µM), for inactives: at the top dose activation (PINK1 increase), actives largely listed as activators; AID 624263; 410,000 tested, 0.2% active; active = well fitted activation curve with a large enough effect; inconclusive = small, poorly fitted or top-dose-only effect; inactive = flat fitted curve, though single readings scatter; cell line not stated here;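 also: potency is read from the fitted curve at half-maximal effect; % of control where 0% means no effect; nearly all actives have a fitted effect of over 65% in size; a mitochondrial uncoupler was the plate control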
#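 Decision-based qHTS: stable cells, 24 h exposure to five compound concentrations, CCCP as control. Fixed cells stained for PINK1 plus nuclear, mitochondrial and cell markers, cytometer read.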
# Menin-MLL FL inh – displaces fluorescein MLL peptide from human menin | FP activity change, % at 61.4 µM | 290,000 tested, under 10 active | Fluorescence polarization, fluorescein-MLL peptide displacement from menin; inconclusive = falling polarisation curve, or a change in total fluorescence; inactive = total fluorescence flat and polarisation flat or rising; no compound was filed as active; the % refers to the polarisation; negative = inhibition;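 also: % of control where 0% means no effect; inhibitors lower the polarisation; unlabelled MLL peptide was the positive control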
# ClpP mod – qHTS Assay for Activators of ClpP | purified B. subtilis ClpP, FRET peptide cleavage, 20 min | ATP-dependent Clp protease proteolytic subunit (Bacillus subtilis (strain 168)), P80244 | Potency, µM (titrated, usually from 57.5 µM), inactives show top-dose activity change, negative = active | 340,000 tested, 1.9% active; active = well fitted falling curve with a large enough effect; inconclusive = small, poorly fitted or top-dose-only effect; inactive = no such curve, though single readings can be large or run the other way; also: potency is read from the fitted curve at half-maximal effect; the source files actives as falling curves though it sought activators and does not explain the sign; nearly all actives have a fitted effect of over 65% in size; many hits overshoot -100%
# Target sequence (P80244 whole entry, looked up): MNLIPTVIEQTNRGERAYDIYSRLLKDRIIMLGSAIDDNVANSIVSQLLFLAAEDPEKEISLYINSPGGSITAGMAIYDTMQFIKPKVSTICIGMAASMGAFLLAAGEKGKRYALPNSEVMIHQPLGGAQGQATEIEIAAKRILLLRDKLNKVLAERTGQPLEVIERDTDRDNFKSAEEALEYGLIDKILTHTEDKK
#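 ClpP 10 microg/mL final, pH 8 Tris/KCl buffer with BSA, glycerol, Tween-20; compound pinned in; FRET-FV substrate; RT 20 min; Ex320/Em430; ΔFRET vs ADEP 5.8 microM, DMSO, no enzyme.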
# TRPML1 agonist – activates the human TRPML1 channel. AID 624414. activation, % (no concentration beside the values). 410,000 tested, 0.12% active. TRPML1-expressing cells, Ca2+ dye fluorescence, FDSS; host cell line not named in the record; reference of the full effect not given here. Q9GZU1; in the data active = activation above about 50%; inconclusive = about 30% to 50%; inactive = below about 30%; also: 0% is about no effect; the text of the record puts the active cut at 80%
#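 Tetracycline-induced TRPML1-DL cells are seeded and incubated overnight before loading with a no-wash Ca2+ dye and quencher. Agonist activity is taken from the 110 s fluorescence read following compound pin-transfer on an FDSS, before EC80 54-4 challenge.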
# An asterisk follows results filed as active; ? = inconclusive; . = no result given; [ ] = dose if it differs, or a comment.
molecule	TRPML1 agonist	Menin-MLL FL inh	TRPV1 PAM	ClpP mod	TRPML1 blocker	Sfp PPTase inh	PINK1 modulator
CCN(c1ccccc1)S(=O)(=O)c1ccc(NC(=S)NC(=O)c2ccc(Br)o2)cc1	0.5	2.6	-4	0.4%	-1	0%	-0.6%
O=C(NCc1cccnc1)c1cc(C2CCCCN2C(=O)c2ccc3ccccc3c2)on1 (configuration not stated)	-0.8	.	.	-6.0%	.	.	2.8%
CC(NC(=O)CSc1n[nH]c(=O)[nH]c1=O)C1CC2CCC1C2 (configuration not stated)	0.2	0.4	?	-2.5%	-17	17%	-0.8%
COC(=O)c1ccccc1NC(=S)NC(=O)c1ccccc1C	0.6	2.1	-2	-0.9%	6	-3%	-5.6%[38.3 µM]
Cc1ccnc(SCCn2c(N(C)Cc3ccccc3)nc3c2c(=O)n(C)c(=O)n3C)n1	-0.3	.	.	2.6%	6	.	1.7%
CCCN1C(=O)CN(C2CCCCCC2)C(=O)C1c1ccc(C)cc1 (configuration not stated)	0.0	0.8	-18	1.9%	2	9%	?
COc1ccc(NC(=S)NNc2ccc(C(=O)O)cc2)cc1	0.1	.	11	.	11	-34%	0.9%
Nc1ncnc2c1ncn2[C@@H]1O[C@H](C(=O)NCC(F)(F)F)[C@@H](O)[C@H]1O	-0.3	.	.	1.5%	14	.	1.0%
CN(C)C(=O)c1ccc(-c2nc(Nc3ccccc3)c3ccccc3n2)cc1	.	5.2	.	.	.	-7%	1.9%
CCOC(=O)c1cccc(NC(=O)N2CCOCC2)c1	0.1	6.2	-25	.	4	6%	0.2%
Cc1ccc(-n2cc(-c3ccccc3)c3c(NC4CCCC4)ncnc32)cc1	-0.9	.	.	?	0	.	3.5%
Cc1cccc(N2CCN(C(=O)c3ccc(N4CCCC4=O)cc3)CC2C)c1 (configuration not stated)	-0.3	8.2	-1	-0.5%	-7	10%	-1.0%
NC(=O)c1nsc(C(=O)N(c2cccc(F)c2)C(C(=O)NC2CCCC2)c2ccco2)c1N (configuration not stated)	0.1	-7.7	3	.	10	-4%	11%
CC(=O)OC1CC2C(C)(C)C(O)CC[C@@]2(C)C2CC[C@@]3(C)C(c4ccoc4)OC(=O)C4OC43[C@]12C (some centres not stated)	.	-2.7	.	.	.	-4%	1.4%
O=C(CSc1nc(O)c(Cc2ccccc2)c(=O)[nH]1)Nc1ccccc1	0.9	3.9	18	-0.2%	-21	16%	3.9%[38.3 µM]

molecule	TRPML1 agonist	Menin-MLL FL inh	TRPV1 PAM	ClpP mod	TRPML1 blocker	Sfp PPTase inh	PINK1 modulator
O=C(CNC(=O)c1ccccc1F)NCCc1ccc(Cl)cc1Cl	0.1	0.4	-1	.	3	14%	0.7%
COC(=O)C(=CC(=CN(C)C)C=C(C(=O)OC)C(=O)OC)C(=O)OC	0.0	2.8	13	-3.2%	52	-14%	-2.2%
CC1(C(=O)NCCCN2CCCC2=O)CCN1CCc1ccccc1 (configuration not stated)	-1.1	.	.	0.0%	.	.	0.6%
O=C(NC(=S)NCC1CCCO1)c1ccco1 (configuration not stated)	0.4	1.6	-4	.	13	20%	1.8%
C=CCOc1ccc2ccccc2c1CNn1c(C)n[nH]c1=S	-0.3	-7.9	10	-0.1%	26	4%	-0.6%
Cc1noc(NS(=O)(=O)c2ccc(NC(=O)Nc3ccc(Cl)c(Cl)c3)cc2)c1C	-0.6	1.6	-7	0.3%	-1	-10%	-1.5%
O=C(NCc1ccc(F)cc1)C(=O)NCC1OCCN1C(=O)c1ccc(Cl)cc1 (configuration not stated)	0.1	-0.6	-8	0.9%	-3	6%	4.8%
COc1ccc(C(=O)N/C(=C/c2cccs2)C(=O)NC(C)(C)C)cc1OC	0.3	-8.7	11	.	-2	21%	-0.3%
COc1cccc(-c2noc(N)c2C#N)c1	3.5	0.7	-8	-1.4%	-14	9%	0.3%[38.3 µM]
CCCCCC1(C(=O)OCC)CC(CSC(=N)N)OC1=O (configuration not stated)	3.8	2.5	3	0.9%	12	6%	1.4%
COc1ccccc1NC(=O)c1c(N=Cc2cccc([N+](=O)[O-])c2)cnn1C	1.1	4.6	5	.	16	13%	0.2%
CCOc1ccc(C(O)c2nccn2C)cc1 (configuration not stated)	1.1	4.6	3	-3.0%	-12	-2%	-1.2%
COc1cc(O)c(C(C)=O)c(CC(=O)O)c1	.	-8.5	2	-2.2%	.	89µM*	-0.4%
Cn1nc(C(=O)NNC(=O)c2ccccc2F)c2ccccc2c1=O	1.3	.	.	1.3%	-12	.	1.7%
Cc1cccc(CSc2nc3ccccc3c(=O)n2C)c1	0.6	.	4	-2.1%	3	.	11%

# Looked up above:
# PINK1 modulator, Cn1nc(C(=O)NNC(=O)c2ccccc2F)c2ccccc2c1=O → 1.7%
# TRPV1 PAM, Cc1noc(NS(=O)(=O)c2ccc(NC(=O)Nc3ccc(Cl)c(Cl)c3)cc2)c1C → -7

# Remaining list, next part:
molecule	TRPML1 agonist	Menin-MLL FL inh	TRPV1 PAM	ClpP mod	TRPML1 blocker	Sfp PPTase inh	PINK1 modulator
O=C(c1cccc(S(=O)(=O)N2CCc3ccccc32)c1)N1CCN(CCO)CC1	0.9	.	.	.	0	.	2.9%
CN(C)c1cccc(NC(=O)c2ccco2)c1	0.2	-1.5	-12	.	8	-3%	-0.7%
Cc1nnc(NC(=O)c2cccc(NC(=O)C(C)C)c2)s1	-0.1	3.0	0	-1.5%	9	-9%	0.4%
CCCCn1c(N)c(N(CCC(C)C)C(=O)CCN2C(=O)C3CC=CCC3C2=O)c(=O)[nH]c1=O (configuration not stated)	-0.3	.	-5	.	27	.	-2.0%
CCOC(=O)C1CCN(c2c(NCCCN(C)C3CCCCC3)c(=O)c2=O)CC1	-0.3	1.7	-8	2.5%	7	5%	2.2%
Cc1c(C(=O)Nc2ccc(S(=O)(=O)Nc3ncccn3)cc2)oc2ccc(Cl)cc12	0.0	.	7	7.2%	8	9%	5.5%
O=C(CSc1nnc(-c2cccnc2)o1)Nc1ccccn1	0.1	0.9	2	-1.8%	-14	8%	0.8%
COC(=O)Cc1[nH]c(Cl)nc1C(N)=O	1.2	-1.4	9	.	12	-19%	-1.0%
Nc1ccc2nn(-c3cc([N+](=O)[O-])ccc3O)nc2c1	-1.0	0.8	25	0.7%	3	-6%	0.0%
O=C(O)C1C2CCC(CC2)C1C(=O)O (configuration not stated)	0.1	.	.	-2.6%	4	.	2.1%
O=C(Nc1nnc(SCc2cccc3ccccc23)s1)C1COc2ccccc2O1 (configuration not stated)	1.4	-0.2	?	?	2	8%	-0.5%
CC(=O)c1cccc(NC(=O)N2CC(C)OC(C)C2)c1 (configuration not stated)	-0.3	-0.9	3	0.5%	6	0%	0.1%
COc1ccc(-c2oc3c(c2-c2cnc(OC)nc2)C(O)CC3)cc1 (configuration not stated)	-0.6	.	.	7.9%	.	.	-0.6%
Cc1oc(/C=N/NS(=O)(=O)c2ccccc2)cc1Br	-0.8	9.2	-4	-0.4%	-19	-5%	2.7%
CN(C)CCCN(Cc1ccc2c(c1)OCO2)C(=O)NC1CCCCC1	-0.1	3.1	?	1.5%	2	13%	1.2%

molecule	TRPML1 agonist	Menin-MLL FL inh	TRPV1 PAM	ClpP mod	TRPML1 blocker	Sfp PPTase inh	PINK1 modulator
NC(=O)NOCc1c(F)cccc1Cl	-0.3	0.1	-3	.	2	-8%	-1.6%
Cc1ccc2nc(/C(C#N)=C/c3ccc(-c4ccccc4C(=O)O)o3)[nH]c2c1	?	?	-1	-1.3%	-16	9%	0.1%
COc1ccc(C2C3C=CCCC3(C)C(=O)N2Cc2ccccc2)cc1Cl (configuration not stated)	3.7	-2.3	.	.	67	?	.
Cc1cccc(CCNC(=O)CCc2nc(-c3ccccc3F)no2)c1	1.0	1.7	-8	0.0%	13	11%	-1.3%
CSc1nnc(Cn2c(=O)sc3ccccc32)n1CCc1ccccc1	2.4	2.7	-9	-2.5%	12	6%	-0.9%
CC1CCN(CCC(=O)Nc2ccc(Cl)cc2)CC1	2.3	2.0	22	.	16	-7%	1.3%
Cc1cccc(-n2cc(CN3CCCN(C=O)CC3)c(-c3cccc(F)c3)n2)c1	1.0	-0.4	-11	-0.7%	21	-1%	2.2%
CCn1c(=O)cc(SCC(=O)Nc2ccc3c(c2)OCO3)c2ccccc21	5.5	-0.4	2	0.1%	-4	1%	0.6%[38.3 µM]
Cc1ccc(Nc2nc(Cl)nc(NC3CCCCC3)n2)cc1	5.3	-5.4	-8	-3.1%	14	11%	-2.6%
CCC(=O)CCC(=O)c1ccc2ccccc2c1	0.1	0.7	-6	?	-1	1%	?
CNC(=O)CSc1nc2sccc2c(=O)n1-c1ccccc1	-1.0	9.9	2	-1.9%	8	8%	2.4%
Cc1ccccc1CN(CC(=O)Nc1cccc([N+](=O)[O-])c1)S(=O)(=O)c1ccc(Cl)cc1	0.0	6.9	-6	0.8%	-18	33%[activator]	2.5%
COc1cccc(C2/C(=C(/O)c3cnn(-c4ccccc4)c3C)C(=O)C(=O)N2CCN(C)C)c1OC (configuration not stated)	-0.3	-0.2	-3	-32%	-4	16%	-0.3%
CSCC[C@H](NC(=O)Nc1ccc(Oc2ccccc2)cc1)C(=O)O	.	6.8	11	-1.3%	.	12%	2.6%
O=C1NC(=O)C(=Cc2ccc(Cl)cc2Cl)S1	-0.4	.	.	-0.8%	9	.	?

molecule	TRPML1 agonist	Menin-MLL FL inh	TRPV1 PAM	ClpP mod	TRPML1 blocker	Sfp PPTase inh	PINK1 modulator
CCCC(=O)NC(c1ccccc1Cl)c1c(O)ccc2ccccc12 (configuration not stated)	0.6	5.7	0	?	15	3%	?
CN(C)C(=O)c1ccc(Nc2nc(-c3cccs3)nc3ccccc23)cc1	2.3	1.5	-3	.	-8	-13%	-1.7%
CCN(CC)CCOC(=O)c1ccc(NC(=O)CNC(=O)C2CCCCC2)cc1	0.0	5.7	4	0.6%	4	15%	-0.1%
N#Cc1c(SCC(=O)O)nc(-c2ccccc2)c2c1CCCC2	0.4	5.7	-3	-2.0%	6	-4%	-1.4%
CCn1c(SCC(=O)Nc2ccccc2)nc2c([nH]c3ccccc32)c1=O	1.1	.	.	11%	-8	.	-2.1%
CSc1ccccc1C(=O)NCCOc1ccccc1C	-0.4	5.0	0	1.2%	-29	6%	-0.6%
COc1ccccc1NC(=O)COC(=O)c1c[nH]c2ccccc12	1.1	.	2	0.0%	6	.	2.6%
